Screens (PubChem)
Bfl-1 A1 inh – inhibitors of the anti-apoptotic protein A1, read as caspase activation. MEF A1-2A-BIM cells, Caspase-Glo 3/7 luminescence, 3 h; percent of clofoctol response, vehicle zero. caspase activation, % (no concentration beside the values). hit rate 0.066% among 330,000. AID 2462;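 active means over half of replicate activation scores above 10%, or exactly half above 10 with the replicate mean above 10; inconclusive means replicate mean below 10 yet half the replicates above 10; inactive means over half of replicates below 10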;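 further: wells of about 30 µL received 50 nL stock; many hits fall short of the cut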
RanGTP-Impb inh – inhibitors of RanGTP-importin-beta interaction, primary screen, biochemical, FRET, CFP-Ran, YFP-importin-beta, homogeneous; hit rate 1.1% among 300,000; inhibition, % (test concentration not listed); cell-free CFP-Ran/YFP-importin-beta FRET ratio;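 active means most replicates above 15%; inconclusive means exactly half above 15%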;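 further: 0% = DMSO wells and 100% = Ran loaded with GDP instead of GTP; wells of about 40 µL received 100 nL stock; the first replicate is given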
Calb FLC – C. albicans growth modulation with fluconazole. C. albicans CaCi-2 (fluconazole-resistant clinical isolate) + fluconazole, Alamar Blue growth, 48 h. growth inhibition, % (no concentration beside the values). hit rate 0.57% among 300,000. AID 1979;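 active means most replicates above 75%; inconclusive means exactly half above 75%; inactive means most below 75%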;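 further: all wells also contain fluconazole at 8 µg/ml as a sub-toxic cotreatment; 0% = median of DMSO wells and 100% = median of geldanamycin control wells; wells of about 8 µL received 7.5 nL stock; the first replicate is given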
Beta apoptosis – beta cell apoptosis inhibition. hit rate 0.8% among 300,000. protection from apoptosis, % (concentration not given with the values). INS-1E cytokine-induced death, ATP luminescence, 48 h; percent of positive-control rescue, neutral wells zero. AID 435005;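 active means all replicates at 75% or more, or half of them and the mean; inconclusive means half reach 75% but not the mean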;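 further: 0% = cytokine-treated negative control wells and 100% = positive control rescue; higher means more ATP so stronger rescue from cytokine killing; wells of about 40 µL received 100 nL stock; the first replicate is given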
T cruzi repl – T. cruzi replication inhibition; T. cruzi beta-gal in NIH3T3, luminescence, 90 h; inhibition, % (no concentration beside the values); hit rate 1.4% among 300,000; AID 1885;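 active means mean inhibition across valid replicates above about 55%, limit read from the data; inconclusive means mean below that limit but half or more replicates reach it; inactive means mean below it, under half of replicates reach it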;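 further: signal also drops with host cell toxicity which is not excluded here; 0% = plate median of DMSO wells and 100% = zero luminescence signal; higher percent means less beta-gal luminescence so fewer parasites; stock transfer was 50 nL into about 50 µL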
LANA-H2B inh – blocks KSHV LANA binding to histone H2A/H2B. inhibition, % (concentration not given with the values). AID 2629. cell-free LANA-H2A/H2B peptide, fluorescence polarization. hit rate 0.6% among 320,000; in the data active means inhibition mostly above about 10%, no sharp cut-off; inactive means mostly below about 6.7%;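 further: stock transfer was 7.5 nL into about 10 µL; 0% = median of vehicle wells and 100% = median of positive control wells; one replicate is shown; the record names a cut of 25% in any replicate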
MLL AF4-AF9 inh – MLL-AF4/AF9 protein interaction inhibition | inhibition, % at 10 µM | hit rate 0.47% among 350,000 | AlphaScreen, biotin-AF4 peptide binding to FLAG-AF9 | P42568;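 active means every replicate reaching a set inhibition limit, whatever the replicate mean, cut at about 25% in these data; inconclusive means mean inhibition reaches that limit but some replicates miss it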;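 further: 0% = plate neutral control median and 100% = total signal loss; the record names both 10 and 1 µM as test concentration; the first replicate is given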
Target sequence (P42568 whole entry, looked up): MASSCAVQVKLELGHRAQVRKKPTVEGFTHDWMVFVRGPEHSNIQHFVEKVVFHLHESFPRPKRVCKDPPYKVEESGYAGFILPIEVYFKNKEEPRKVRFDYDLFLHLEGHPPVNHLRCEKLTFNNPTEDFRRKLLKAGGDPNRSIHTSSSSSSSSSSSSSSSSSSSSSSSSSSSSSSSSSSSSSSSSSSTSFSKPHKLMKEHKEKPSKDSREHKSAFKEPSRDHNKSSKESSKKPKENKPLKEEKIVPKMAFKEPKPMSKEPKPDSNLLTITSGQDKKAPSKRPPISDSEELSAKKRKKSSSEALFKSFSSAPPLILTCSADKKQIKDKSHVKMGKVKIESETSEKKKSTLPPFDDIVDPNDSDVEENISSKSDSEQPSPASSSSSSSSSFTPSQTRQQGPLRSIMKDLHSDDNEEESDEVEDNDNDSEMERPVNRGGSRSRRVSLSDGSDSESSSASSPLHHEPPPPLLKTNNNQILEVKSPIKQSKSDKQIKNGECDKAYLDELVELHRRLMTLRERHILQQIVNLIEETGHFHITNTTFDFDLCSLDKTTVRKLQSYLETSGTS
Vif A3G – inhibitors of Vif binding to APOBEC3G peptide, primary screen, biochemical, TR-FRET, GST-Vif 1-94, biotin-A3G peptide, dose response retest (AID 1117319) | TR-FRET GST-Vif / biotin-A3G peptide binding; higher % means a stronger effect; test concentration not given here; strong numbers were not always called active | inhibition, %; hits with a dose series show IC50 in µM | hit rate 0.57% among 260,000;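 active means above the screen mean plus three standard deviations and confirmed in dose response; inconclusive means results disagree or hit not tested in dose response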;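 further: Vif residues 1-94 fused to GST binding biotinylated APOBEC3G peptide 110-148; 0% = full assay without inhibitor and 100% = GST in place of GST-Vif; retest series ran down from 100 µM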
* marks the source's active call; other numbers are inactive results; ? = inconclusive; / = not tested or not shown.

compound	Bfl-1 A1 inh	RanGTP-Impb inh	Calb FLC	Beta apoptosis	T cruzi repl	LANA-H2B inh	MLL AF4-AF9 inh	Vif A3G
Cc1nnsc1SCC(=O)O	1.4	-5.2	-9	-4	-1	1.7	/	?
Cc1ccc(-n2c(CC#N)n[nH]c2=S)c(C)c1	0.3	1.5	12	0	1	-0.4	-4.2	12%
C=CCN(C/C(=N\O)c1sc(C(=O)OCC)nc1C)c1cccc(Br)c1	-0.8	0.1	-6	/	-13	-0.5	/	/
Cn1c(=O)c2c(SCC(=O)NCCc3ccccc3)nc(C3CC3)nc2n(C)c1=O	-0.1	-1.3	2	0	-1	6.9	/	-4%
COC(=O)c1ccccc1NC(=O)CN1CCC(C(=O)c2ccc3c(c2)OCCO3)CC1	-0.3	/	2	-2	1	-2.4	-0.7	-11%
CC(=O)O[C@]1(C(C)=O)CCC2C3CCC4=C/C(=N/OCC(=O)O)CC[C@]4(C)C3CC[C@@]21C (stereo not given in full)	-0.3	5.2	-14	-3	14	0.0	2.8	-3%
C=CC(=C)CC(NC)c1ccccc1 (stereo not given)	0.3	/	-9	0	0	1.6	28*	6%
O=C(COC(=O)c1ccc(C(F)(F)F)cc1)Nc1cccc(S(=O)(=O)N2CCCCC2)c1	-0.6	/	/	-5	/	0.2	?	/
O=C(NCC1CC1)C1(C(F)(F)F)CC(CCCO)CCCO1 (stereo not given)	-0.8	-3.8	20	-1	0	-2.9	?	/
COc1ccc(OCC(=O)N/N=C2\CCCc3ccccc32)cc1	0.2	3.3	41	-4	3	-2.7	-7.1	/
O=S1(=O)[C@H]2CC3O[C@]2(C[C@@H]3c2ccc(F)cc2)CN1Cc1ccc(Cl)cc1	0.5	0.1	-2	/	49	0.2	/	/
O=C(c1ccncc1)N1CCCC(N2CCN(c3cccc(C(F)(F)F)c3)CC2)C1 (stereo not given)	0.5	-1.8	-5	-20	12	1.1	1.2	/
Cc1ccccc1N=Cc1cc2c(cc1O)OC(N)=C(C#N)C2c1ccccc1 (stereo not given)	0.4	30*	1	-49	-9	-2.2	5.3	/
CCc1ccccc1N(C)C(=O)CCc1nc(-c2ccc(C)cc2)no1	1.1	0.4	1	/	11	-0.3	/	13%
Cc1cc(Br)ccc1N=C1C(=O)Nc2ccccc21	-0.6	5.4	-8	17	-1	1.3	3.6	-12%
Cc1ccc(NC(=O)[C@@H]2CCCN2S(=O)(=O)c2ccc(Cl)cc2)cc1	0.2	/	/	-7	/	-3.2	0.5	-9%
Cn1c(-c2ccc3c(c2)OCO3)cnc1NCc1cccc(O)c1	-0.3	4.9	-8	/	-16	-3.7	7.3	28%
NS(=O)(=O)c1ccc(N2C(=O)C3CC=CCC3C2=O)cc1 (stereo not given)	0.4	2.6	11	-1	-17	3.2	-1.2	/
CN(C)CCNC(=S)Nc1ccc(-c2nc3ccccc3[nH]2)cc1	0.0	?	-5	-1	-11	-0.8	1.3	29%
CCCNC(=O)COC(=O)/C=C/c1ccc2c(c1)OCO2	-2.0	-1.3	-4	-2	-7	7.5	0.0	2%
CCN(CC)S(=O)(=O)c1cccc(NC(=O)COC(=O)CNC(=O)c2cccc(F)c2)c1	1.9	1.4	-8	-6	-37	-0.1	?	/
CCOc1ccc(CCNC(=O)c2ccc(C)c(NC3=NC4CS(=O)(=O)CC4S3)c2)cc1 (stereo not given)	-0.1	-0.5	-12	-5	-2	2.0	5.5	/
C#CCSc1nc(-c2ccccc2)cc(C(F)(F)F)c1C#N	1.0	-0.3	?	/	12	-7.5	/	-6%
CC(C)c1nnc(NC(=O)c2ccc3c(c2)OCO3)s1	-6.4	-0.6	-19	/	27	3.5	-2.6	-7%
O=C(O)CCC(=O)NC(c1ccccc1)c1ccccc1	-0.6	-1.3	-13	2	-12	1.1	-1.3	-1%
O=C(CCc1ccc(S(=O)(=O)N2CCOCC2)cc1)NCCCN1CCCC1=O	0.5	0.3	-3	-2	5	3.0	/	2%
CCOc1ccc(NC(=O)C2CCC(N3C(=O)C4CC=CCC4C3=O)CC2)cc1 (stereo not given)	0.3	?	-18	7	-9	-1.1	/	4%
CCCc1nc2ccccc2c(=O)n1/N=C/c1ccc(O)c(O)c1	0.3	-5.5	-1	0	-31	3.7	/	3%
CS(=O)(=O)N1CCN(c2ccc([N+](=O)[O-])c(N3CCOCC3)c2)CC1	0.6	-4.4	-18	-5	0	-2.7	/	20%
CCOC(=O)CSc1ccc2nnc(CCNS(=O)(=O)c3ccccc3)n2n1	-0.1	-1.3	-12	-1	-6	-1.0	-1.0	4%
CSc1nnc(NC(=O)CCc2ccccc2)s1	0.3	1.5	27	-3	-1	3.2	/	6%
Cc1ccc(NC(=O)COC(=O)c2ccc(CN3CCCC3=O)cc2)c(Cl)c1	-1.4	/	/	2	/	1.7	-1.5	6%
CCS(=O)(=O)c1nc(S(=O)(=O)c2ccc(C)cc2)c(N2CCN(C)CC2)s1	2.2	-2.9	-1	-8	-1	-1.3	0.6	/
CS(=O)(=O)N(Cc1ccc(Cl)cc1)c1ccc(C(=O)N/N=C/c2cc3ccccc3nc2Cl)cc1	-0.1	-3.3	7	9	25	7.0	/	/
O=C(Nc1csc([N+](=O)[O-])c1)Nc1c(Cl)cccc1Cl	0.7	-1.8	2	-15	27	1.3	-1.6	/
CCOC(=O)c1ccc(NC(=O)N2CCCCCC2)cc1	-0.2	1.4	-1	-4	14	-1.3	-7.7	/
COc1ccccc1NC(=O)c1ccccc1N(Cc1ccccc1)S(C)(=O)=O	0.8	1.6	16	-8	6	-0.1	-1.7	/
COc1ccc(OCC(O)Cn2c(Nc3ccccc3)nc3c2c(=O)n(C)c(=O)n3C)cc1 (stereo not given)	0.9	-3.1	1	1	11	0.9	/	-4%
COc1cc2c(cc1NC(=O)c1ccccc1F)CCCC2	-0.5	-0.6	-1	0	9	-0.4	/	/
O=C(O)C1(Cc2nc3ccccc3[nH]2)CCCC1	0.7	7.1	2	-4	-10	-2.2	0.5	13%
COC(=O)c1sc(S(=O)(=O)N2CCC(C(N)=O)CC2)c(C(=O)OC)c1C	1.8	-0.8	31	-5	0	-2.4	/	2%
NC(=O)c1c(NC(=O)c2ccccc2F)sc2c1CCCC2	-3.8	?	82*	-3	5	-1.2	3.0	/
Cc1cc2c(c(Sc3ccccc3)n1)C(=O)OC2	0.5	4.6	9	-6	9	2.5	/	1%
O=C(COC(=O)C12CC3CC(CC(O)(C3)C1)C2)Nc1ccc(Cl)cc1F	0.2	/	/	-2	/	-4.5	-0.6	-7%
C=CCn1c(SCC(=O)Nc2cc(C)on2)nc2sc(C)c(C)c2c1=O	-0.9	0.8	0	4	17	2.0	/	-3%
Cc1ccc(C(=O)/C=C/Nc2ccccc2C(N)=O)o1	-4.6	-75	-4	-4	-14	-3.8	-1.0	33%
C[C@@H](O)C1NC(=O)[C@H](CCCCN)NC(=O)c2cc([N+](=O)[O-])cc(I)c2NCCC[C@@H](C(N)=O)NC1=O (stereo not given in full)	0.0	?	0	0	-13	3.1	22	23%
CCCN(C(=O)c1cn(C)c(=O)c2ccccc12)c1ccccc1C	1.1	0.7	-2	-6	6	-0.4	-3.0	5%
COc1cc(C(=O)Nc2nc(OC)c(-c3ccccc3)c(OC)n2)cc(OC)c1OC	1.8	1.9	0	13	-6	-2.9	/	33%
COc1ccc(C)c(-n2c(N)cc(=O)n(Cc3ccccc3)c2=O)c1	0.4	1.2	2	-11	8	-3.1	3.0	6%
CC1CCC2(CC1)NC(=O)N(CC(=O)NC1CCCCC1C)C2=O (stereo not given)	0.9	/	/	7	/	0.2	1.8	1%
O=C(NCc1ccco1)C1CCCCN1S(=O)(=O)c1ccc(F)cc1 (stereo not given)	0.7	?	0	-9	5	0.2	/	9%
CC1=CC(=O)C=CC1(C)C(Cl)Cl (stereo not given)	-0.5	1.0	2	-1	-21	-0.4	/	-7%
CN(Cc1ccccc1)C(=O)CN(c1ccccc1Cl)S(C)(=O)=O	-0.3	-1.4	-7	/	-1	3.2	2.8	/
COc1ccc(NS(=O)(=O)c2ccc3ccccc3c2)c2ncccc12	0.4	3.3	?	39	57*	-1.0	3.9	/
CC(OC(=O)C1CCCC1)C(=O)Nc1ccc(S(N)(=O)=O)cc1 (stereo not given)	-0.6	6.7	-2	-2	7	-3.8	6.3	/
COc1cc(NC(=S)NN2CCN(C)CC2)cc(OC)c1	2.5	0.1	0	2	-8	-1.0	/	-7%
O=C(NCCO)c1c(O)c2cccc3c2n(c1=O)CC3	0.1	3.3	-2	-1	-2	-4.8	/	-6%
COC(=O)c1ccc(C23CC4(C2)[C@H](CN(CC2CCCCC2)[C@@H]4c2ccccc2)C3c2ccc(Cl)nc2)cc1 (stereo not given in full)	-0.6	-2.2	-12	5	23	-2.0	/	/
Cc1ccc2oc(=O)c3cc(C(=O)NCCCN4C(C)CCCC4C)sc3c2c1 (stereo not given)	0.1	?	11	5	17	-3.7	0.0	/

Other entries.
compound	Bfl-1 A1 inh	RanGTP-Impb inh	Calb FLC	Beta apoptosis	T cruzi repl	LANA-H2B inh	MLL AF4-AF9 inh	Vif A3G
COc1cc(C(=S)N(C)C)ccc1O	-0.9	/	/	-4	/	-18	-1.0	4%
O=C(CSc1nc2[nH]ncc2c(=O)n1-c1ccc(Cl)c(Cl)c1)NCc1ccccc1Cl	1.3	-0.6	30	3	58*	-0.2	1.8	6%
COCCn1cc(C(=O)N2CCCC(C)C2)c2c3ccccc3n(C)c2c1=O (stereo not given)	0.2	4.8	-15	-11	13	4.5	/	?
O=c1c2ccccc2ncn1Cc1nc2ccccc2s1	0.3	1.9	15	-7	-14	1.2	/	0%
CCOC(=O)CC1C(=O)NCCN1c1nc2ccc(C)cn2c(=O)c1/C=C1\SC(=S)N(C(C)CC)C1=O (stereo not given)	-1.0	-202	16	/	25	-28	/	/
Cc1cc(C)c2cc(C(c3nnnn3C3CCCC3)N3CCOCC3)c(=O)[nH]c2c1 (stereo not given)	0.8	5.7	-5	-2	2	-2.1	/	?
O=C(Nc1ccc(C(F)(F)F)cc1)c1cccc(-n2cnnn2)c1	-0.8	/	/	8	/	-5.2	0.3	14%
CCN(CC)C(=O)Cn1cc(S(=O)(=O)CC(=O)NCc2ccc3c(c2)OCO3)c2ccccc21	-1.2	-1.0	-3	-6	-16	2.0	0.0	0%
Cc1ccc(CNC(=O)Cc2cn(C)c3ccccc23)cc1	-2.3	6.0	-6	-9	-16	8.9	-6.1	-4%
O=C(NCc1ccccc1)C1CCC(=O)N(CCN2CCOCC2)C1 (stereo not given)	-0.1	-0.1	9	-7	2	3.7	-2.0	-2%
COc1cc(OC)cc(C(=O)Nn2cc(C(=O)Nc3ccccc3F)c3ccccc3c2=O)c1	0.8	0.3	4	11	-18	1.1	1.0	4%
CCOC(=O)c1sc(NC(=O)C2CCCCC2)nc1C	0.4	-1.8	5	-2	-1	1.7	-4.0	/
CC(C)(O)C#CC#CCN1CCOCC1	-2.4	1.4	-1	-2	-10	3.0	/	?
CCCCCCCOc1ccc(OC(=O)c2ccncc2)cc1	1.2	-0.3	14	/	?	-0.8	-3.0	19%
